# MenB inh – inhibitors of Mycobacterium tuberculosis MenB enzyme | MenB enzyme assay, absorbance read-out; some hits fall short of the stated cut | 0.43% of 100,000 active | P9WNP5 | inhibition, %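 (about 12 µg/mL by stock and volumes)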;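 active means mean of two replicates above 30%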;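 further: 0% = no compound and 100% = wells with inactive enzyme; the first replicate is given; strong numbers were not always called active; inactives centre near -10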
# Target sequence (P9WNP5 whole entry, looked up): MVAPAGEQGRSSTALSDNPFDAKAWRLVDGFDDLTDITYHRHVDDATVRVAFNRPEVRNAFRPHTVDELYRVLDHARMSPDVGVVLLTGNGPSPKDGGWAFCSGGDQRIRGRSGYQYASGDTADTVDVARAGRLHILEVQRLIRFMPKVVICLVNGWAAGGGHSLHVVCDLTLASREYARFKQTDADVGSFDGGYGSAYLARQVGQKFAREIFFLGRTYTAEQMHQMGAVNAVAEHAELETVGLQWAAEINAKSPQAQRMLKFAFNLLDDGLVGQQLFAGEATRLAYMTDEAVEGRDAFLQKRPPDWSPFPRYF
# Polio RdRp inh – poliovirus RNA polymerase inhibition; % elongation, % (compound at 16.7 µg/mL); poliovirus polymerase elongation, fluorescence polarization; hits give low values; 0.66% of 150,000 active; P03300; AID 588519; in the data active means % elongation below about 90%; further: some results filed as inactive read as strong as hits
# Target sequence (P03300 1749-2209 limits assumed): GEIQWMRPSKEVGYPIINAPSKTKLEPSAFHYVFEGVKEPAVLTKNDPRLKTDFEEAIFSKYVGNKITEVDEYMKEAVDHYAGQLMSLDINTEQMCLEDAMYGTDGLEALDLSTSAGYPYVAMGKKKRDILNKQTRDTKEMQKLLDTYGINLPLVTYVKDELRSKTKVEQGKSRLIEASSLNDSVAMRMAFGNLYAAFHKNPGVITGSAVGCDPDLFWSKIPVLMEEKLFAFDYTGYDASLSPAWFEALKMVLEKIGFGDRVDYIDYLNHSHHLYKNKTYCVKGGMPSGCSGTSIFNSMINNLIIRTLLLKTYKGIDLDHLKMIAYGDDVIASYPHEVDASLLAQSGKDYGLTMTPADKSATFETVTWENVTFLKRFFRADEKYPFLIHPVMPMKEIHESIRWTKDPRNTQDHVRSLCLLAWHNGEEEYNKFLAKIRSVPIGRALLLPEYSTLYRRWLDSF
# Mtb MbtI inh – inhibitors of Mycobacterium tuberculosis siderophore enzyme MbtI; AID 493033; purified MbtI enzyme, fluorescence intensity read-out; P9WFX0; inhibition, %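 (about 17 µg/mL by stock and volumes)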; 0.89% of 100,000 active;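 active means above 50% in both replicates, above 80% if mildly self-fluorescent; inactive means the rest, strongly fluorescent compounds included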;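 further: 0% = mean of negative and 100% = mean of positive controls; one replicate is shown; some compounds called inactive have numbers as strong as hits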
# Polio RdRp inh intensity – recorded beside Polio RdRp inh, whose call it bears; % elongation; measured here: total intensity read-out; formula for this scale not given here;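 total fluorescence in place of polarization; lower means less elongation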
# * hit, by the source's call; x = no result given; & = joins results of further samples. Rows are unselected (roughly 1.7% active in at least one column).
No.	SMILES	MenB inh	Polio RdRp inh
1	CCc1nnc(NC(=O)C2CC(=O)N(c3ccccc3)C2)s1 (configuration not stated)	-56	103
2	N#CCCN(C(=O)Cn1c(Cc2ccccc2)nc2ccccc21)c1ccccc1	x	103
3	Cc1sc2ncnc(NCC(=O)O)c2c1C	-11	108
4	CCC1(C)CC(=O)NC1=O (configuration not stated)	-18&-1	98&102
5	Cc1ccc(F)cc1N1CC(C(=O)O)CC1=O (configuration not stated)	-13	94
6	COc1ccc(/C=C/C(=O)Nc2ccn(-c3ccccc3)n2)cc1	x	99
7	O=C(Nc1ccccc1Cl)NC1(C(=O)NCc2cccnc2)CCCCC1	2	103
8	Cc1ccc(Nc2nnc(SCC(=O)NC(=O)NCc3ccco3)s2)cc1C	-8	98
9	Cc1ccc(C)c(C(=O)CSc2nc3nc(C)cc(C)c3c(=O)[nH]2)c1	6	100
10	COc1cccc(C(=O)NCc2ccc3c(c2)OCO3)c1	-31	100
11	Cc1c(C)n(Cc2ccccc2)c2ccc(C(=O)O)cc12	3	102
12	CN(Cc1ccccc1)C(=O)COC(=O)C1COc2ccccc2O1 (configuration not stated)	-5	103
13	FC(F)(F)Oc1ccccc1C=Nc1ccc(Cl)cc1	3	102
14	CC(NC(=O)CCn1c(=S)oc2ccccc21)c1ccccc1 (configuration not stated)	-7	104
15	CC(=O)Oc1c(I)c(=O)n(C)c2ccccc12	0	108

No.	Polio RdRp inh intensity	Mtb MbtI inh
1	101	15
2	105	-8
3	110	x
4	99&100	-5&-20
5	104	-12
6	102	0
7	101	-7
8	99	7
9	106	3
10	108	-7
11	110	x
12	109	-3
13	114	-8
14	98	2
15	111	-12

# The list goes on.
No.	SMILES	MenB inh	Polio RdRp inh
16	c1cnc(Oc2ccc3oc4ccccc4c3c2)nc1	-2	101
17	O=C(Nc1ccc(OC(F)(F)F)cc1)Nc1cc(-c2ccccc2)[nH]n1	-16	108
18	CCOC(=O)CS(=O)(=O)c1ccc2ccccc2c1	-12	99
19	O=C(Nc1ccccc1)c1c2c(nc3ccccc13)CCC2	x	100
20	O=C1N=C(N2CCCC2)S/C1=C/c1ccc(-c2ccccc2)o1	-5	x
21	Cc1cccc(-c2nc3c(c(=O)[nH]2)Cc2ccccc2O3)c1	6	100
22	CC(=O)Nc1c(C#N)c2nc3ccccc3nc2n1C1CCCCC1	x	104
23	CCOC(=O)c1c(C)oc(=O)c(Br)c1C	-14	104
24	COc1ccccc1-c1nnc(C2CCN(S(=O)(=O)c3ccc(S(=O)(=O)N4CCCCCC4)cc3)CC2)o1	7	99
25	O=C(CSc1ncnn1CC(=O)c1ccc(Br)cc1)c1ccc(Br)cc1	-33	108
26	C=CCn1c(=N)c(C#N)cc2c(=O)n3ccccc3nc21	-80	102
27	Oc1cccc2ccc(Nc3ccc4cccc(O)c4n3)nc12	-121	97
28	CCCN(CC1CC1)C(=O)CSc1nnc(-c2ccco2)n1N	-4	99
29	Cc1cc2cc(CNC(=O)C3CCCCC3)ccc2n1C	-21	104
30	CCCc1cc(C(=O)NCc2ccco2)no1	-16	101

No.	Polio RdRp inh intensity	Mtb MbtI inh
16	96	3
17	109	0
18	103	-7
19	104	-3
20	x	-5
21	103	-1
22	102	-33
23	98	2
24	100	1
25	106	x
26	102	47
27	103	-36
28	91	16
29	105	-10
30	100	3

# Next part
No.	SMILES	MenB inh	Polio RdRp inh
31	CCS(=O)CCSc1nc2ccccc2s1 (configuration not stated)	-16	99
32	O=C(CSc1nnc(CNC(=O)c2cccs2)o1)NC1CCCC1	-14	100
33	CCn1c(=O)c(=O)[nH]c2c(=O)oc3ccccc3c21	1	102
34	COc1ccc(C(=O)NCCS(=O)(=O)N2CCN(C(=O)c3ccco3)CC2)cc1	-16	105
35	CC1CCN(c2c(S(=O)(=O)c3ccccc3)cnc3ccccc23)CC1	-19	100
36	CN(Cc1ccccc1)C(=O)c1cc2c(=O)n3ccccc3nc2n1C	-20	101
37	Cc1cc(OC(=O)/C=C/c2ccco2)ccc1Cl	-21	102
38	CC1CCN(S(=O)(=O)c2ccc(C(=O)Nc3ccc4c(c3)C(=O)NC4=O)cc2)CC1	-15	101
39	c1ccc(CNc2cccc3nonc23)cc1	x	100
40	Cc1c(C)c(C)c(S(=O)(=O)N=C(N)N)c(C)c1C	-52	112
41	COc1cccc(-c2noc(N3CCC4(CC3)OCCO4)n2)c1	-11	104
42	COc1cccc(CNC(=O)C(C)n2sc3ccccc3c2=O)c1 (configuration not stated)	-22	100
43	Cc1noc2nc(-c3ccccc3)cc(C(F)(F)F)c12	x	103
44	O=C(O)COCC(=O)Nc1cccc(C(=O)O)c1	-18	101
45	Cc1cc(C(=O)CSc2nnc(-c3ccco3)o2)c(C)n1-c1nccs1	-4	107

No.	Polio RdRp inh intensity	Mtb MbtI inh
31	103	33
32	99	-1
33	101	6
34	107	8
35	104	10
36	99	106
37	106	-2
38	100	106
39	119	-3
40	116	-3
41	102	-5
42	105	-13
43	105	-6
44	104	-28
45	108	6

# Next part
No.	SMILES	MenB inh	Polio RdRp inh
46	S=C(Nc1cccnc1)NC1CCCC1	-21	97
47	O=C(Cn1c(-c2ccccc2)noc1=O)Nc1cccc(Cl)c1Cl	-20	103
48	CCOC(=O)c1[nH]c(C)c(C(=O)OCc2c(C)noc2C)c1C	-22	106
49	Cc1ccc(S(=O)(=O)N2CCCCC2C)cc1 (configuration not stated)	-20	102
50	CCN(CC)CCN1C(=O)C(=O)/C(=C(/O)c2ccc(OC)cc2C)C1c1ccc(F)cc1 (configuration not stated)	-11	103
51	COC(=O)c1ccc(COc2ccccc2C(N)=O)cc1	-3	99
52	O=C(O)C1C2CC3CC(C2)CC1(n1ncc(N2CCOCC2)c(Cl)c1=O)C3 (configuration not stated)	-8	103
53	COc1ccc(S(=O)(=O)N2CCCCC2C)cc1 (configuration not stated)	-14	101
54	CCOC(=O)c1ccc(Nc2c(C(=O)OCC)cnc3ccccc23)cc1	0	103
55	CCN(CC)C(=O)CSc1nc(C)cc(=O)[nH]1	-72	101
56	O=C(COc1ccccc1)Nc1ccccc1N1CCCCC1	-4	104
57	N#CC(O[C@@H]1O[C@H](CO[C@@H]2O[C@H](CO)[C@@H](O)[C@H](O)[C@H]2O)[C@@H](O)[C@H](O)[C@H]1O)c1ccccc1 (some centres not stated)	1	102
58	O=C(CSc1ccccn1)Nc1cc(Cl)cc(Cl)c1	x	103
59	COc1ccc(S(=O)(=O)N2CCC(NC(=O)NCCN3CCCCC3)CC2)cc1	6	101
60	CC(=O)NS(=O)(=O)c1ccc(NC(=O)C2CCCC2)cc1	x	103

No.	Polio RdRp inh intensity	Mtb MbtI inh
46	103	14
47	100	-6
48	108	-2
49	105	-6
50	104	-3
51	101	-2
52	107	-13
53	103	4
54	96	2
55	102	1
56	101	x
57	100	-15
58	96	13
59	102	-2
60	107	-7

# Other results.
No.	SMILES	MenB inh	Polio RdRp inh
61	CC(C)(C)c1csc(NC(=O)/C=C/c2ccccc2)n1	x	103
62	COc1ccc(/C=C2\OC(=S)N(C)C2=O)cc1	-5	104
63	CC1(C)Cc2nc3sc4c(N5CCOCC5)ncnc4c3cc2CO1	7	102
64	CCc1cc2c(cc1C(=O)c1ccc(I)cc1)OCCO2	-15	108
65	Cc1ccc2nc(SCC(=O)c3cc(C)n(C4CC4)c3C)[nH]c2c1	-2	100
66	CNC(=O)/C(=C\c1ccccc1)NC(=O)c1ccc(Cl)cc1Cl	x	100
67	COc1ccccc1CNC(=O)CCn1c(=O)c2ccccc2n(CC(=O)NCC2CCCO2)c1=O (configuration not stated)	-2	101
68	COc1ccc(CN2C(=O)c3ccccc3C2C(=O)NCCCN2CC(C)CC(C)C2)cc1 (configuration not stated)	2	97
69	CN=C(Cc1ccccc1)C1=C(O)CC(C)(C)CC1=O	-26	98
70	CCOC(=O)C1=c2s/c(=C/c3cccs3)c(=O)n2C(N)=C(C#N)C1c1cccs1 (configuration not stated)	1	102
71	CCCCN(CC)C(=O)c1cc2c(-c3ccc(Cl)cc3)nn(C)c2s1	-32	102
72	O=C(C1CC1(c1ccccc1)c1ccccc1)N1CCCCC1 (configuration not stated)	-19	99
73	CCCC(=O)Nc1ccc(NC(=O)c2ccc(OC)cc2)cn1	-5	101
74	CCNC(=O)CSc1n[nH]c(-c2ccc(C)cc2)n1	-22	105
75	C=CCc1cccc2cc(C(N)=S)c(=N)oc12	-45	102

No.	Polio RdRp inh intensity	Mtb MbtI inh
61	102	-2
62	107	2
63	105	2
64	110	x
65	107	5
66	100	0
67	102	6
68	97	-12
69	86	2
70	103	-2
71	102	13
72	96	x
73	103	27
74	102	8
75	113	x

# Going on with the list.
No.	SMILES	MenB inh	Polio RdRp inh
76	N#CCSc1nn(-c2ccc(F)cc2)c(=S)s1	-25	108
77	CCOC(=O)c1cnc2c(OC)cccc2c1NCC1COc2ccccc2O1 (configuration not stated)	-23	102
78	Cc1ccc2nc(C)nc(-c3ccccc3)c2c1	-19	101
79	O=C(Nc1ccccn1)c1ccc(Cl)s1	7	101
80	CC1=NN(CCC#N)C(c2ccccc2)C1 (configuration not stated)	-2	101
81	O=C(O)c1ccc(-c2cnc3ccccc3n2)cc1	-5	100
82	NNC(=O)c1ccco1	6	98
83	COC(=O)c1cc2c(C(F)(F)F)nn(C)c2s1	-2	105
84	Cc1csc2c(C#N)c(=O)c3c(n12)CCC3	-22	101
85	O=C(OCc1nc2ccccc2s1)c1ccc2c(c1)C(=O)N(Cc1ccco1)C2=O	-3	110
86	CC(CCc1ccccc1)N1CCN(c2ccccc2F)CC1 (configuration not stated)	-8	99
87	Cc1cc(C)c2c(N)c(S(=O)(=O)c3ccccc3)sc2n1	-23	102
88	CN(CC(=O)Nc1ccc(F)c(F)c1F)C(=O)c1ccc(N2CCCC2=O)cc1	-18	105
89	COc1cccc2c1OC1(C)C(C(=O)Nc3ccc(C)cc3C)C2NC(=S)N1c1ccc(F)cc1 (configuration not stated)	-5	104
90	O=S(=O)(Cc1ccco1)Cc1nc(-c2ccc(Cl)cc2)cs1	-14	103

No.	Polio RdRp inh intensity	Mtb MbtI inh
76	124	3
77	100	115
78	95	1
79	103	11
80	103	2
81	97	x
82	106	-1
83	111	-16
84	103	-24
85	115	-4
86	103	-10
87	106	-118
88	103	-13
89	106	-7
90	106	3

# Going on with the list:
No.	SMILES	MenB inh	Polio RdRp inh
91	CCS(=O)(=O)c1nc(S(=O)(=O)c2ccc(C)cc2)c(NCc2ccco2)s1	7	101
92	CC1CCCCN1CCNC(=O)c1cccn2c(=O)c3c4c(sc3nc12)CCCC4 (configuration not stated)	-11	98
93	O=C(O)c1nnn(Cc2ccccc2)c1C(=O)O	-30	101
94	COc1cccc(OC)c1C(=O)Nc1ccc(N2CCN(C(C)=O)CC2)c(Cl)c1	-7	101
95	CCCCOc1ccc(C(=O)Nc2ccc(-c3nc4ccccc4o3)c(O)c2)cc1	-14	102
96	O=C(c1ccccc1)c1cc[n+](Cc2ccccn2)cc1	-7	106
97	C1=C(CCNC2=NCCCCC2)CCCC1	2	104
98	O=C(CCSc1nnc2ccccn12)Nc1cccc(-c2nc3ccccc3s2)c1	-11	102
99	CCO/C([O-])=N/c1c[n+](N2CCOCC2)no1	-7&18	102&98
100	CCN(Cc1cc(=O)oc2ccc(OC)cc12)c1ccccc1	0	101
101	O=C(CCCN1C(=O)/C(=C\c2ccco2)SC1=S)Nc1cccnc1	-86	102
102	C/C(Cc1nc2ccccc2[nH]1)=N/Nc1ccccc1	-74	98
103	CCc1cc(SCC(=O)NCCN2C(=O)CSC2=O)n2c(nc3ccccc32)c1C#N	-12	95
104	NS(=O)(=O)c1ccc2nc(NC(=O)Cn3[nH]c(=O)c4ccccc4c3=O)sc2c1	8	103
105	CSc1n[nH]c(NC(=O)c2ccccc2Cl)c1S(=O)(=O)c1ccc(Cl)cc1	-5	103

No.	Polio RdRp inh intensity	Mtb MbtI inh
91	98	1
92	90	2
93	98	-9
94	106	0
95	106	-7
96	104	x
97	100	2
98	108	32
99	101&101	0&4
100	100	16
101	107	10
102	105	14
103	88	2
104	104	2
105	99	-3

# Assay outcomes deposited in PubChem BioAssay by ICCB-Longwood Screening Facility, Harvard Medical School.
